High-throughput results as filed in PubChem BioAssay.
Rango dissoc inh: prevents RanGTP from dissociating the Rango-importin beta complex. Biochemical FRET Rango-importin beta, RanGTP-induced dissociation. hit rate 0.071% among 340,000. Potency, µM (doses to about 46.1 µM), inactives show top-dose activity change, negative = inhibition; active means falling FRET ratio curve, often poorly fitted, with flat reads before Ran was added; inconclusive means other falling curves, or compound fluorescence or quenching; inactive means flat or rising ratio curve;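 note: potency is the fitted concentration of half-maximal effect; % of control where 0% means no effect; nearly all actives have a fitted effect of over 45% in size; -100% = wells without RanGTP and RCC1; the record marks most hits as doubtful in a second field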
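Recombinant Rango FRET biosensor (EYFP–snurportin 1 IBB–cerulean CFP10) at 0.1 uM premixed with 0.25 uM importin beta in PBS, 1 mM DTT, 0.02% Tween-20, 0.1% BSA. Compound added 5 min; RanGTP-RCC1 (0.6 uM Ran, 2 mM GTP, 0.2 uM RCC1) then triggers release, read at 45 min.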
GLA inh pH 4.5: inhibitors of human alpha-galactosidase A at pH 4.5; activity change, negative = inhibition, % at 105 µM; P06280; AID 1467; purified enzyme, 4-MU-alpha-Gal fluorescence, pH 4.5; 230,000 tested, under 10 active; inconclusive = small, poorly fitted or top-dose-only inhibition, or a rising curve; inactive = flat fitted curve, though single readings scatter; no compound was filed as active;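 note: 0% = full activity with enzyme and -100% = basal without enzyme; dose as in the result columns while the protocol names 77 µM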
Target sequence (P06280 whole entry, looked up): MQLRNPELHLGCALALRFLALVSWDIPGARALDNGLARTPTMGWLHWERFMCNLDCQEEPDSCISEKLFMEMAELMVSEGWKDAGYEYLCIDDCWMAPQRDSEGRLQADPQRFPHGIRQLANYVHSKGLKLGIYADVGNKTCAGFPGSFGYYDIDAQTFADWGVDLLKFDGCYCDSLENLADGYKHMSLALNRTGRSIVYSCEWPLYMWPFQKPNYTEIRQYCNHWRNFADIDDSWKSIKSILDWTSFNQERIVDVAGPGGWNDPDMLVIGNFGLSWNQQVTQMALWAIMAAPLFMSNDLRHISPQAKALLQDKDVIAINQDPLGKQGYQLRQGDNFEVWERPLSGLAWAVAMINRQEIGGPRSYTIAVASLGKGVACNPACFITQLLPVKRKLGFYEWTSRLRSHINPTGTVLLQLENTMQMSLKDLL
miR-21 FLuc: miR-21 reporter, rising signal. HeLa miR-21 FLuc reporter, luciferase, 48 h. Potency, µM (highest dose often 38.3 µM), without a hit: at the top dose reporter change, positive = more light. 340,000 tested, under 10 active; active = well fitted rising curve with a large enough effect; inconclusive = small, poorly fitted or top-dose-only effect; inactive = no such curve, though single readings can be large or run the other way;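 note: % of control where 0% means no effect; miR-21 action dims this reporter so a rising signal means less miR-21 action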
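HeLa cells endogenously expressing miR-21, stably carrying CMV-driven firefly luciferase with a downstream miR-21 binding site, 2000 cells/well. Titrations up to approximately 40 uM, 48 hours; luciferase luminescence read.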
Rango complex inh: prevents formation of the Rango-importin beta complex; Q14974; Rango CFP/YFP FRET sensor + importin beta, 45 min; Potency, µM (doses to about 92.2 µM), without a hit: top-dose inhibition of complex formation; AID 540263; hit rate 0.031% among 340,000; active = rising FRET ratio curve, often small or poorly fitted; inconclusive = mostly compound fluorescence or quenching in the first reads; inactive = flat curves in all reads;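 note: potency is the fitted concentration of half-maximal effect; 0% = DMSO wells and 100% = buffer wells lacking importin beta; nearly all actives have a fitted effect of over 15% in size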
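Inhibition scored from the CFP 486 nm/YFP 530 nm FRET ratio 45 min after adding 0.125 microM importin beta to 50 nM Rango biosensor preincubated 5 min with compound (room temperature, PBS with DTT, Tween-20, BSA). No-importin wells as positive control.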
Active calls of the source: *; ? = inconclusive; . = not tested or not shown; & = joins results of further samples. This is a subset (hit frequency here may not be typical).

Preview:
#	Rango dissoc inh	GLA inh pH 4.5	miR-21 FLuc	Rango complex inh	Structure
1	-11%	.	0%	-5.8%	COc1ccc(-c2cc(C)no2)cc1S(=O)(=O)N(C)c1ccc(C)c(C)c1
2	0%	-16	12%	-5.5%	CCc1ccc2[nH]c(=O)c(CN(CC3CCCO3)C(=S)NCc3ccco3)cc2c1 (stereo unspecified)
3	-3%	4	1%	4.0%	Cc1nnnn1CC(=O)Nc1ccccc1[N+](=O)[O-]
4	8%	.	.	-3.6%	COc1ccc(CNC(=O)Cn2ccc(N)nc2=O)cc1
5	-7%	.	.	5.1%	COc1ccc(CC(=O)OCC(=O)NC2CCCCC2)cc1OC

The whole of this part (from the top)
#	Rango dissoc inh	GLA inh pH 4.5	miR-21 FLuc	Rango complex inh	Structure
1	-11%	.	0%	-5.8%	COc1ccc(-c2cc(C)no2)cc1S(=O)(=O)N(C)c1ccc(C)c(C)c1
2	0%	-16	12%	-5.5%	CCc1ccc2[nH]c(=O)c(CN(CC3CCCO3)C(=S)NCc3ccco3)cc2c1 (stereo unspecified)
3	-3%	4	1%	4.0%	Cc1nnnn1CC(=O)Nc1ccccc1[N+](=O)[O-]
4	8%	.	.	-3.6%	COc1ccc(CNC(=O)Cn2ccc(N)nc2=O)cc1
5	-7%	.	.	5.1%	COc1ccc(CC(=O)OCC(=O)NC2CCCCC2)cc1OC
6	27%	.	0%	-0.8%	COc1ccc(CCNC(=O)c2cccc(NC3=NC4CS(=O)(=O)CC4S3)c2)c(OC)c1 (stereo unspecified)
7	5%	10	-36%	0.1%	COC(=O)c1c(NC(C)=O)sc(C(=O)Nc2ccccc2F)c1C
8	5%	.	0%	-0.6%	O=C(COC(=O)c1cccs1)NCc1cccs1
9	-3%	1	9%	0.1%	COc1ccccc1NS(=O)(=O)c1cc(NC(=O)CNC(=O)c2cc(C)cc(C)c2)ccc1C
10	-5%	.	-44%	-1.2%	COc1ccc(C)cc1NC(=O)Nc1ccc(C(=O)N2CCCC2)cc1
11	14%	.	3%	0.7%	COc1ccc(Cc2nnc(NC(=O)c3ccc(C)cc3)s2)cc1OC
12	5%	-16	28%	-0.6%	O=C(CCS(=O)(=O)Cc1ccccc1)Nc1nc2c(s1)CCCC2
13	4%	.	-1%	-1.4%	O=C(CCN1C(=O)/C(=C/c2ccc(Cl)cc2)SC1=S)Nc1cccc(C(=O)O)c1
14	22%	9	-3%	0.3%	COCCCNC(=O)CCc1nnc(Cc2ccc(-c3ccccc3)cc2)o1
15	8%	.	6%	-0.3%	COCCCNc1nc2c(c(=O)n(Cc3ccc(Cl)cc3)c(=O)n2C)n1C
16	0%	.	0%	0.6%	COc1ccc(CCC(=O)NCc2ccc3c(c2)OCO3)cc1
17	1%	1&-5	-2%	-0.1%	OC(CCCN1CCCCC1)(c1ccccc1)c1ccccc1
18	0%	.	.	-2.3%	CC(=O)C[C@H]1c2cc(C(F)(F)F)ccc2S(=O)(=O)N1C1CCCC1
19	23%	-4	?	?	O=C(N/N=C/c1ccc([N+](=O)[O-])o1)C(O)c1ccccc1 (stereo unspecified)
20	0%	-1	1%	-2.6%	O=C(O/N=C1\CCCc2ccccc21)c1cccs1

Filtered by structure, the compounds so far with a Cl atom (2)
#	Rango dissoc inh	GLA inh pH 4.5	miR-21 FLuc	Rango complex inh	Structure
13	4%	.	-1%	-1.4%	O=C(CCN1C(=O)/C(=C/c2ccc(Cl)cc2)SC1=S)Nc1cccc(C(=O)O)c1
15	8%	.	6%	-0.3%	COCCCNc1nc2c(c(=O)n(Cc3ccc(Cl)cc3)c(=O)n2C)n1C

Carrying on:
#	Rango dissoc inh	GLA inh pH 4.5	miR-21 FLuc	Rango complex inh	Structure
21	0%	-15	0%	2.8%	CCCCCCCCC(=O)N/N=C(\C)c1cccnc1
22	-17%	3	-6%	-0.2%	Cn1c2c(c(=O)n(C)c1=O)C(c1ccc(Cl)cc1)C(C#N)=C(N)O2 (stereo unspecified)
23	-6%	-3	4%	-1.9%	COc1ccc(OCc2nnc(SCC(=O)N3CCCc4ccccc43)n2-c2ccc(C)cc2)cc1
24	-8%	.	-1%	-0.8%	COC(CNS(=O)(=O)c1ccc(S(=O)(=O)NC2CC2)cc1)OC
25	7%	6	1%	2.1%	Cc1cc(C)nc(SCC(=O)Nc2ccc(S(=O)(=O)NCCO)cc2)n1
26	-10%	.	-2%	-0.4%	CCOc1ccc(NC(=O)Cn2c(=O)n(CCCC(=O)NC3CCN(Cc4ccccc4)CC3)c(=O)c3ccccc32)cc1
27	-19%	-5	1%	-0.1%	CC1CCc2cc(F)ccc2N1C(=O)c1cc2nc(-c3ccco3)cc(C(F)(F)F)n2n1 (stereo unspecified)
28	35%	6	0%	-5.3%	CCOc1ccc(N2CC(C(=O)NC(C)C)CC2=O)cc1 (stereo unspecified)
29	-10%	.	.	-2.1%	CN=C1S/C(=C\c2cccc(Cl)c2Cl)C(=O)N1C
30	-15%	.	.	3.7%	CC(C(=O)Nc1ccc2c(c1)OCO2)N(C)CC(=O)Nc1ccccc1Cl (stereo unspecified)
31	-26%	-8	16%	2.3%	COc1cccc(S(=O)(=O)NCC(=O)Nc2ccc(C(C)(C)C)cc2)c1
32	?	1	5%	?	COc1cc(NC(=O)c2ccccc2)c(OC)cc1NC(=O)Cc1cccs1
33	1%	.	.	-1.2%	CCOc1cc(NC(=O)c2ccco2)c(OCC)cc1NC(=O)COc1ccccc1C
34	3%	-8	-28%	-0.5%	O=C(CSc1ncn[nH]1)Nc1ccc(OCc2ccccc2)cc1
35	3%	-1	-8%	-0.6%	O=C(c1ccc(Br)o1)N1CCN(c2ncccn2)CC1
36	2%	.	-12%	0.1%	CCn1cc(/C=C(\NC(=O)c2ccccc2OC)C(=O)N2CCN(C)CC2)c2ccccc21
37	30%	2	-32%	-2.3%	CC(CNC(=O)CCc1nnc(CCC2CCCCC2)o1)c1ccccc1 (stereo unspecified)
38	-4%	.	.	-3.3%	COc1ccc(NC(=O)N(C)C[C@H]2Oc3c(NC(=O)Nc4c(C)noc4C)cccc3C(=O)N([C@H](C)CO)C[C@@H]2C)cc1
39	-6%	.	12%	2.5%	O=C(NCC(=O)N(Cc1ccccc1)C(C(=O)NCC1CCCO1)c1ccccc1)c1ccco1 (stereo unspecified)
40	-6%	.	6%	0.1%	Cc1cccc(CN2CCN(c3ncccn3)CC2)c1

Quoted from the listing.
O=C(CCN1C(=O)/C(=C/c2ccc(Cl)cc2)SC1=S)Nc1cccc(C(=O)O)c1 | miR-21 FLuc: -1%
O=C(N/N=C/c1ccc([N+](=O)[O-])o1)C(O)c1ccccc1 (stereo unspecified) | GLA inh pH 4.5: -4

The list goes on.
#	Rango dissoc inh	GLA inh pH 4.5	miR-21 FLuc	Rango complex inh	Structure
41	-4%	.	.	1.3%	COc1cccc(C=C2SC(=S)NC2=O)c1
42	-24%	.	.	?	O=C(c1cc(-c2ccco2)nc2ccccc12)N1CCCC(C(F)(F)F)C1 (stereo unspecified)
43	5%	.	-31%	9.2%	Cc1ccc(OCCOc2cccc(/C=N/NC(N)=O)c2)cc1
44	-4%	3	-1%	4.8%	CSc1nnc(N(CCC#N)CCC#N)s1
45	3%	-10	9%	-1.8%	CCOC(=O)c1cccc(NC(=O)CN(c2ccc(OC)cc2)S(=O)(=O)c2c(C)noc2C)c1
46	7%	0	0%	-4.5%	O=C(Nc1ccccc1)c1ccccc1OCc1ccc(S(=O)(=O)N2CCOCC2)cc1
47	-16%	-18	-19%	-0.2%	COc1cc(O)sc1C=Nc1ccc(Cl)cc1Cl
48	16%	4	-8%	3.0%	CC(C)CNC(=O)COC(=O)CCC(=O)c1cccs1
49	1%	.	.	-0.2%	CCC1c2ccccc2C(=O)C1C(N)=O (stereo unspecified)
50	8%	9	5%	6.2%	C=CCNC(=S)Nc1cccc([N+](=O)[O-])c1
51	-16%	9	-12%	3.6%	CCn1nnc(NC(=O)CSc2ccc(Cl)cc2)n1
52	-2%	.	.	-1.6%	COc1cccc(CNC(=O)COC(=O)c2cccc(S(=O)(=O)N3CCN(C(C)=O)CC3)c2)c1
53	13%	-2	-12%	-1.9%	Cc1ccc(C(=O)Oc2cccc(-n3cnnn3)c2)cc1
54	2%	0	-6%	-4.7%	Cc1[nH]n(C)c(=O)c1C(=O)c1c(-c2c(Cl)cccc2Cl)noc1C
55	-1%	.	0%	-3.1%	O=C(O)c1ccc(S(=O)(=O)N(Cc2ccccc2)C2CCCCC2)cc1
56	-6%	.	0%	1.1%	CCN(CC)S(=O)(=O)c1ccc(C(=O)OCC(=O)NC2CCCC2)cc1
57	-1%	2	-2%	-2.8%	Nn1c(SCC(=O)NC2CCS(=O)(=O)C2)nnc1-c1cccs1 (stereo unspecified)
58	-4%	-1	-13%	-0.4%	COc1ccc(C(=O)NNC(=O)Nc2ccc(Cl)cc2)cc1
59	-2%	-3	0%	2.9%	CCCNC(=O)N(C)c1nncnc1C(=O)NC
60	9%	.	-59%	1.0%	CCC(=O)NCCc1nc2cc(NC(=O)c3ccccc3Cl)ccc2n1C

Record cards (already shown). Order of values: Rango dissoc inh | GLA inh pH 4.5 | miR-21 FLuc | Rango complex inh
Nn1c(SCC(=O)NC2CCS(=O)(=O)C2)nnc1-c1cccs1 (stereo unspecified) is entered as -1% | 2 | -2% | -2.8%
Cc1[nH]n(C)c(=O)c1C(=O)c1c(-c2c(Cl)cccc2Cl)noc1C is entered as 2% | 0 | -6% | -4.7%
COc1cc(O)sc1C=Nc1ccc(Cl)cc1Cl is entered as -16% | -18 | -19% | -0.2%

(cont.)
#	Rango dissoc inh	GLA inh pH 4.5	miR-21 FLuc	Rango complex inh	Structure
61	-10%	1	-3%	4.5%	COc1ccc(N2CC(C(=O)NCc3ccccc3)CC2=O)cc1 (stereo unspecified)
62	-8%	.	0%	0.6%	Cc1noc(C)c1CN1C(=O)c2ccc([N+](=O)[O-])cc2C1=O
63	-5%	-12	0%	-2.5%	COC(=O)C(C)(C)NC(=O)c1cccs1
64	0%	3	-2%	-2.2%	O=C(Nn1c(-c2ccccc2)nc2ccccc2c1=O)c1ccc([N+](=O)[O-])cc1
65	4%	.	-38%	2.4%	O=C(N/N=C/c1ccncc1)c1ccccn1
66	-23%	.	0%	-2.1%	Cc1ccc(OC(=O)c2ccncc2)c(C)c1
67	-6%	.	3%	1.3%	Cc1cc(-c2nnc(SCC(=O)Nc3ccc(Cl)cn3)n2N)n[nH]1
68	7%	?	-6%	3.9%	COCCNC(=O)C(=O)N/N=C/c1cccs1
69	-6%	.	.	?	NC(=O)c1ccc(NC(=O)COC(=O)CCC2CCCCC2)cc1
70	11%	-9	-34%	-0.1%	Cc1cc2oc(C(=O)Nc3cccnc3)c(C)c2cc1C
71	-18%	3	1%	?	Cc1ccccc1NC(=S)NCc1ccc2[nH]c3c(c2c1)CCCC3
72	17%	-4	-6%	1.2%	CCc1n[nH]c(=S)n1/N=C/c1cc(OC)cc([N+](=O)[O-])c1O
73	-23%	12	-8%	-1.0%	CC(Sc1nc(-c2ccccc2)cc(C(F)(F)F)n1)C(=O)Nc1ccc2c(c1)OCO2 (stereo unspecified)
74	-4%	.	.	-0.9%	Cc1ccc(C(=O)OCC(=O)Nc2ccc(Cl)cn2)s1
75	1%	.	.	?	CCOC(=O)c1cc(-c2ccccc2C)nn1CC1CC(c2ccc(OC)cc2)=NO1 (stereo unspecified)
